Compound activity as filed in PubChem BioAssay.
GLA inh pH 4.5 – qHTS Assay for Inhibitors of Human alpha-Galactosidase at pH 4.5; activity change, negative = inhibition, % at 105 µM; 230,000 tested, under 10 active; Alpha-galactosidase A (Homo sapiens), P06280; AID 1467, 2008; purified enzyme, 4-MU-alpha-Gal fluorescence, pH 4.5; inconclusive = small, poorly fitted or top-dose-only inhibition, or a rising curve; inactive = flat fitted curve, though single readings scatter; no compound was filed as active;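 also: 0% = full activity with enzyme and -100% = basal without enzyme; dose as in the result columns while the protocol names 77 µM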
Target sequence (P06280 whole entry, looked up): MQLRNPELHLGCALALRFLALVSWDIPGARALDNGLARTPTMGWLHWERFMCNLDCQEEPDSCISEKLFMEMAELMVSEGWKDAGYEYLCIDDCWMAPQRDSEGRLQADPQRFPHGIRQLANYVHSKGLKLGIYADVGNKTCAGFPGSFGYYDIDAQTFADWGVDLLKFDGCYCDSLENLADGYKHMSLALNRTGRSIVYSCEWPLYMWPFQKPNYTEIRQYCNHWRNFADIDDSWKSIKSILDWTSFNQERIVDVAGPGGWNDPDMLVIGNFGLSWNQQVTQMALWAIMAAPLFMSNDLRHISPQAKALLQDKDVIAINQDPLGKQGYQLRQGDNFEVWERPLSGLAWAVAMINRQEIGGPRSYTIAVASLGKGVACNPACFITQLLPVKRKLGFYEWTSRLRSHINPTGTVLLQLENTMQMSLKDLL
Rango complex inh – qHTS Assay for Inhibitors of Rango (Ran-regulated importin-beta cargo) - Importin beta complex formation; Importin subunit beta-1 (Homo sapiens), Q14974; Rango CFP/YFP FRET sensor + importin beta, 45 min; Potency, µM (titrated, usually from 92.2 µM), without a hit: at the top dose inhibition of complex formation; 0.031% of 340,000 active; active = rising FRET ratio curve, often small or poorly fitted; inconclusive = mostly compound fluorescence or quenching in the first reads; inactive = flat curves in all reads;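 also: potency is read from the fitted curve at half-maximal effect; 0% = DMSO wells and 100% = buffer wells lacking importin beta; nearly all actives have a fitted effect of over 15% in size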
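FRET biosensor (snurportin 1 IBB flanked by EYFP and cerulean), 50 nM, with compound 5 min, then 0.125 microM importin beta in PBS, 1 mM DTT, 0.02% Tween-20, 0.1% BSA. CFP/YFP ratio read after 45 min at room temperature; pre-read flags interference.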
miR-21 reporter – qHTS Assay for Modulators of miRNAs and/orActivators of miR-21. Potency, µM (highest dose often 38.3 µM), without a hit: at the highest dose reporter change, positive = more light. HeLa miR-21 FLuc reporter, luciferase, 48 h. AID 2288, 2010. 340,000 tested, under 10 active; active = well fitted rising curve with a large enough effect; inconclusive = small, poorly fitted or top-dose-only effect; inactive = no such curve, though single readings can be large or run the other way;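 also: % of control where 0% means no effect; miR-21 action dims this reporter so a rising signal means less miR-21 action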
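Luminescence from a firefly luciferase reporter carrying a miR-21 binding site downstream, stably expressed under a CMV promoter in HeLa cells that make miR-21 endogenously, reports miRNA modulation after 48 h compound exposure up to approximately 40uM final.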
Rango release inh – qHTS Assay for Inhibitors of RanGTP induced Rango (Ran-regulated importin-beta cargo) - Importin beta complex dissociation; Snurportin-1 (Homo sapiens) + GTP-binding nuclear protein Ran (Homo sapiens) + Importin …; Biochemical FRET Rango-importin beta, RanGTP-induced dissociation; Potency, µM (doses to about 46.1 µM), for the others: top-dose activity change, negative = inhibition; 0.071% of 340,000 active; AID 540253, 2011; active means falling FRET ratio curve, often poorly fitted, with flat reads before Ran was added; inconclusive means other falling curves, or compound fluorescence or quenching; inactive means flat or rising ratio curve;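 also: potency is read from the fitted curve at half-maximal effect; % of control where 0% means no effect; nearly all actives have a fitted effect of over 45% in size; -100% = wells without RanGTP and RCC1; the record marks most hits as doubtful in a second field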
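Rango (0.1 uM)–importin beta (0.25 uM) complex; RanGTP-RCC1 trigger; 45 min RT; CFP/YFP FRET read.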
* hit, by the source's call; ? = inconclusive; . = no result given. Not all compounds are listed (hit frequency here may not be typical).

GLA inh pH 4.5 | Rango complex inh | miR-21 reporter | mol | Rango release inh
. | 1.4% | -7% | COc1ccc(-c2noc(N3CCCC(C(=O)Nc4cc(F)ccc4F)C3)n2)cc1 (centres undefined) | -10%
. | 2.1% | . | COc1ccc(OC)c(C(=O)COC(=O)c2[nH]c(C)c(C(C)=O)c2C)c1 | ?
-8 | -1.8% | -18% | COc1ccc(-n2c(C)cc(C(=O)CSc3ccc(NC(C)=O)cc3)c2C)cc1 | -3%
0 | 3.0% | -13% | CCC(=O)Nc1nnc(CSCc2ccccc2)s1 | 13%
. | 4.9% | -1% | Cc1cc2c(cc1S(=O)(=O)N1CCN(c3cccc(C)c3C)CC1)OCC(=O)N2 | -4%
2 | ? | -4% | O=C1/C(=C\c2ccsc2)NC(=S)N1c1ccccc1 | -26%
. | -1.1% | 0% | CSCCC(NC(=O)c1ccccc1Br)C(=O)N1CCCC(C(F)(F)F)C1 (centres undefined) | -5%
-17 | 4.6% | -22% | COC(=O)C(CC(=O)c1ccc(Cl)cc1)c1ccc(C)cc1 (centres undefined) | -5%
1 | -3.8% | -5% | S=c1[nH]nc(-c2ccco2)n1/N=C/c1cccs1 | -1%
2 | -0.1% | -7% | COc1ccccc1NC(=O)Cc1c(F)cccc1Cl | -14%
. | 0.4% | -4% | Nc1nc(-c2cccs2)c(-c2cccs2)s1 | 4%
. | -1.8% | . | CN(C(=O)COC(=O)/C=C/c1ccc(C(F)(F)F)cc1)c1c(N)n(Cc2ccccc2)c(=O)[nH]c1=O | 1%
. | -0.1% | . | Cc1cn([C@H](C(=O)NCCCCCCCCCCC(=O)N2CCNCC2)[C@@H](C)O)nn1 | 1%
-6 | -0.1% | -6% | C(#CCN1CCC(Cc2ccccc2)CC1)COCCOCc1ccccc1 | 1%
. | -3.0% | . | COc1ccc(C(CNC(=O)c2cccc(S(=O)(=O)N3CCCc4ccccc43)c2)N(C)C)cc1 (centres undefined) | 2%
-20 | ? | -17% | CC(C)c1ccc(NC(=S)NCc2ccc3c(c2)OCO3)cc1 | -13%
-16 | 0.1% | -3% | CN(C)CCN1C(=O)c2oc3ccc(F)cc3c(=O)c2C1c1ccncc1 (centres undefined) | 22%
. | 1.2% | -2% | Cc1ccc(OCC(O)CN2CCOCC2)cc1 (centres undefined) | 1%
-1 | -2.2% | 10% | CCN(c1cccc(C(F)(F)F)c1)S(=O)(=O)c1ccc2c(c1)CCN2C(=O)C1CC1 | -1%
1 | 6.2% | -7% | CC(C)(C)c1nnc(NC(=O)CN2C(=O)C3C4C=CC(C4)C3C2=O)s1 (centres undefined) | 2%
-3 | 0.0% | 5% | Cc1cccc(OCC(=O)NCC(=O)N/N=C/c2c(C)[nH]c3ccccc23)c1 | -3%
. | -0.3% | -4% | CC(C)CNS(=O)(=O)c1ccc(CCC(=O)NCCc2ccccc2)cc1 | -1%
-4 | 2.3% | 0% | COC(=O)c1c(C(=O)OC)c2n(c1C)CCS2 | -14%
6 | 1.7% | -15% | O=C(Oc1ccc(-n2cnnn2)cc1)c1ccco1 | -9%
-2 | 0.2% | -10% | O=c1cc2c(nn1Cc1c(Cl)cccc1Cl)-c1ccccc1CC2 | -3%
-8 | -1.1% | -1% | NCCN=C1NS(=O)(=O)c2ccccc21 | -7%
3 | -1.8% | 14% | NC(=O)CS(=O)(=O)c1nc2ccccc2n1CC(=O)N1CCCCC1 | 6%
. | 1.0% | 0% | CCOCC(O)CNC(=O)c1ccc2nc(Cc3ccc(OC)c(OC)c3)oc2c1 (centres undefined) | 4%
3 | -1.5% | -8% | Cc1cc(-n2nc(C)cc2C)nc(NS(=O)(=O)c2ccccc2)n1 | 10%
2 | -7.2% | 26% | OCCN1CCN(Cc2cc(Cl)c3cccnc3c2O)CC1 | -21%
5 | 0.5% | -2% | COC(=O)c1ccccc1NC(=O)C1CCCN(S(C)(=O)=O)C1 (centres undefined) | 10%
-3 | -2.3% | -4% | O=C(NCCC(=O)N1CCN(c2ncccn2)CC1)c1ccccc1Cl | -8%
-3 | 4.6% | -3% | N#Cc1cc(N2CCCCC2)c([N+](=O)[O-])cc1C#N | -14%
0 | -4.3% | -11% | CC(=O)Nc1ccc(NC(=O)CSc2ccc(-c3cccs3)nn2)cc1 | 6%
-7 | ? | 16% | CC1=CC2=NC(=O)/C(=C\c3cccn3CCOc3cc(C)ccc3C)C(=N)N2O1 | 0%
-3 | ? | -27% | O=C(Cc1ccc(Br)cc1)N/N=C/c1ccc(-c2cccc(C(=O)O)c2)o1 | 0%
-2 | 3.1% | 0% | COC(=O)c1ccc2c(=O)n(CCO)c(=S)[nH]c2c1 | 4%
3 | 6.4% | -3% | Cc1cc(C(F)(F)F)nn1CC(=O)NNC(=S)NCC(C)C | 1%
-5 | ? | -4% | COc1ccc(S(=O)(=O)NCCCCCC(=O)NCCCN2CCOCC2)cc1 | -5%
0 | -0.5% | -4% | Cc1[nH]c2ccccc2c1Cc1nnc(SCCC#N)o1 | 1%
. | -1.1% | 6% | COC(=O)C(Cc1ccc(O)cc1)NC(=O)C1CCN(S(=O)(=O)c2ccc(C)cc2)CC1 (centres undefined) | -9%
-2 | 0.4% | -1% | CCCCNS(=O)(=O)c1ccc2c(c1)oc(=O)n2CC(=O)OCC | 5%
. | 2.5% | . | CCc1ccccc1OCC(=O)Nc1ccc(C)c(S(=O)(=O)N2CCCCCC2)c1 | 8%
12 | -0.6% | 7% | CC(=O)Nc1ccc2c(c1)C(C)(C)C(C)N2C (centres undefined) | -5%
. | -6.1% | -55% | CC(=O)c1c(C)[nH]c(C(=O)Nc2ccc(C)cc2Br)c1C | -10%
-13 | -2.4% | 4% | CCOC(=O)N1CCN(c2c(NCCN3CCN(c4ccccc4F)CC3)c(=O)c2=O)CC1 | -8%
-7 | -11% | 2% | Cc1ccc(S(=O)(=O)N2CCOCC2)cc1NC(=O)CSc1nc(N)cc(=O)[nH]1 | -14%
4 | -3.5% | -2% | Cc1ccccc1Cn1nc(C)c(NC(=O)/C=C/c2cnn(C)c2)c1C | 5%
0 | 3.4% | ? | OC(CNc1ccccc1)COc1ccc(OCC(O)CNc2ccccc2)cc1 (centres undefined) | 9%
1 | 1.8% | -4% | COC(=O)c1sc(NC(=O)C2CCCO2)c(C(=O)OC)c1C (centres undefined) | -1%

Limited to Rango complex inh, for some of the entries so far:
SMILES | Rango complex inh
Cc1ccc(S(=O)(=O)N2CCOCC2)cc1NC(=O)CSc1nc(N)cc(=O)[nH]1 | -11%
Cc1cc(-n2nc(C)cc2C)nc(NS(=O)(=O)c2ccccc2)n1 | -1.5%

The main list resumes; the 2 compounds before the break are reprinted first.
GLA inh pH 4.5 | Rango complex inh | miR-21 reporter | mol | Rango release inh
0 | 3.4% | ? | OC(CNc1ccccc1)COc1ccc(OCC(O)CNc2ccccc2)cc1 (centres undefined) | 9%
1 | 1.8% | -4% | COC(=O)c1sc(NC(=O)C2CCCO2)c(C(=O)OC)c1C (centres undefined) | -1%
0 | 1.7% | 0% | CCC(C)(C(=O)Nc1ccc2c(c1)OCCO2)N(C(C)=O)c1ccc(C(N)=O)cc1 (centres undefined) | 9%
-2 | 0.5% | -16% | Cc1ccc(S(=O)(=O)N2CCC(=O)N(CCOC(=O)Nc3cccc(Cl)c3)CC2)cc1 | 14%
. | -1.2% | . | Cc1ccc(S(=O)(=O)CCC(=O)OCc2cc(C)ccc2C)cc1 | 9%
. | ? | -5% | Cc1c(Cl)cccc1NS(=O)(=O)c1ccc(-c2ccc(=O)[nH]n2)o1 | -7%
-8 | 0.1% | -17% | CCNc1nc(NCC)nc(SCCOC(=O)Nc2ccc(Cl)cc2Cl)n1 | 12%
-1 | -2.7% | -21% | CCOC(=O)c1sc2ncnc(N3CCN(CC)CC3)c2c1C | -11%
-1 | -0.1% | -4% | CCc1nnc(NC(=O)c2ccc(-c3ccc(F)cc3)o2)s1 | 1%
6 | ? | -1% | O=C(NCCNC(=O)C(F)(F)F)c1ccncc1 | 6%
0 | 0.6% | 1% | Cc1nn(CC(=O)OC(C)C(=O)Nc2ccccc2[N+](=O)[O-])c(C)c1[N+](=O)[O-] (centres undefined) | -5%
. | -0.8% | 0% | CCc1ccc(/C=C2\C(=N)N3N=C(CC(=O)N4CCCCC4)SC3=NC2=O)cc1 | -6%
2 | ? | -1% | O=C(COc1cccc2ccccc12)NNC(=O)C1CCCO1 (centres undefined) | 0%
. | -0.9% | 4% | Cc1ccc(NC(=O)C2CCCN(c3ncnc4c3nc3n4CCCCC3)C2)cc1Cl (centres undefined) | -12%
-1 | -0.2% | -2% | COc1ccc(/C=N/N=C2/NC(=O)C(CC(=O)NC(N)=O)S2)cc1 (centres undefined) | -3%
1 | 8.9% | -28% | COc1cc(C(=O)OC2CC3CCC2(C)C3(C)C)ccc1OC(C)=O (centres undefined) | 5%
. | -5.5% | . | CC(C)(C)c1cc(-c2nc(N)nc(N)n2)c(O)c(C(C)(C)C)c1 | -18%
-6 | -1.1% | -4% | Cc1ccc(NC(=O)CO/N=C/c2ccc(N(C)C)cc2)cc1 | 20%
. | 2.3% | -1% | CC(C)N1CC(C(=O)Nc2ccc(Cl)c([N+](=O)[O-])c2)CC1=O (centres undefined) | 0%
-2 | ? | 12% | C/C(CC(=O)NCc1ccco1)=N\NC(=O)COc1ccc(Cl)cc1Cl | 12%
3 | 4.5% | -58% | Cc1nc(Nc2ccc(C(=O)O)cc2)sc1-c1ccccc1 | 11%
. | 3.3% | . | N#Cc1ccccc1NC(=O)COC(=O)c1c[nH]c2ccccc12 | 5%
-1 | -0.9% | 4% | Cc1ccc(C2C(C=Nc3c(C)n(C)n(-c4ccccc4)c3=O)=C(c3ccccc3)Oc3ccccc32)cc1 (centres undefined) | -17%
0 | -2.3% | -3% | Cc1nc(C(=O)Nc2cc(Cl)ccc2Cl)nn1-c1cc(OC(C)C)c(Cl)cc1Cl | -7%
. | -4.0% | 2% | COc1ccc(N2CC(C(=O)OCC(=O)Nc3cccc(C)c3C)CC2=O)cc1 (centres undefined) | 18%
. | -1.9% | -6% | COc1ccc(N(CC(=O)NC2CCCC2)C(=O)Cn2nnc(-c3ccc(C)o3)n2)c(OC)c1 | -4%
. | -5.1% | . | CCCCN(C(=O)C(C)N1C(=O)c2ccccc2C1=O)c1c(N)n(CC(C)C)c(=O)[nH]c1=O (centres undefined) | -1%
6 | 4.8% | -5% | CC1(C)CC(N2CN(C3CCCCC3)CC2=O)CC(C)(C)N1 | -15%
2 | -0.7% | 2% | O=C/C(=C\Nc1ccc(Br)cc1)c1nc2ccccc2o1 | 2%
4 | 4.7% | -1% | Cc1ccc(S(=O)(=O)Oc2ccccc2/C=C2/SC(=O)NC2=O)cc1 | 5%
. | 0.4% | . | O=C(CSc1nc2cc(Cl)ccc2o1)NC1CC1 | -16%
-3 | -2.2% | -19% | CCn1cc(Cl)c(C(=O)Nc2nc3ccccc3n2CCN2CCCCC2)n1 | 1%
. | 0.0% | -6% | CC(NC(=O)C(C)N1CCN(Cc2ccccc2)CC1)c1ccc(F)cc1 (centres undefined) | 11%
. | 4.7% | . | Cc1ccc(S(=O)(=O)NCc2ccccc2)cc1C(=O)N(C)CC(=O)Nc1ccccc1Br | -1%
1 | 1.2% | -1% | Cc1ccc(-n2ncc3c(NCc4cccnc4)ncnc32)c(C)c1 | 42%
. | 0.0% | 0% | CCn1c(SCC(=O)NC2CCCCC2)nnc1C(CO)NC(=O)c1ccccc1 (centres undefined) | ?
5 | -0.2% | 0% | CC(=O)c1c(C(=O)O)c2ccccc2[nH]c1=O | -15%
2 | 0.8% | -33% | CCOC(=O)Nc1ccc2nc(N3CCCCCC3)sc2c1 | 16%

In the list so far, these contain a tert-butyl group:
GLA inh pH 4.5 | Rango complex inh | miR-21 reporter | mol | Rango release inh
1 | 6.2% | -7% | CC(C)(C)c1nnc(NC(=O)CN2C(=O)C3C4C=CC(C4)C3C2=O)s1 (centres undefined) | 2%
. | -5.5% | . | CC(C)(C)c1cc(-c2nc(N)nc(N)n2)c(O)c(C(C)(C)C)c1 | -18%
